Assay outcomes from PubChem.
nsP2pro primary: CHIKV nsP2 protease inhibition, primary qHTS; Q8JUX6; FRET peptide cleavage, nsP2pro, fluorescence 1 h; Potency, µM (series often up to 24.9 µM), inactives show top-dose activity change, negative = inhibition, hits mostly inhibitors; hit rate 1.1% among 31,000; AID 1964107; active means well fitted inhibition curve with a large enough effect; inconclusive means small, poorly fitted or top-dose-only effect; inactive means no such curve, though single readings can be large or run the other way; note: nearly all actives have a fitted effect of over 60% in size; a reference inhibitor and vehicle were the controls
Numbers without * were called inactive; i = inactive; ? = inconclusive; [ ] = dose if it differs, or a comment. % is set by controls: 0 for no effect and ±100 for the full control effect; potency is the fitted concentration of half-maximal effect. This is a subset; the hit share may differ from the screen's.

A first look (6 entries):
Compound	nsP2pro primary
CCn1cc(C(=O)N2C[C@@H](COC)[C@H](C(=O)NC)C2)cn1	-0.7%
CC(C)c1ccc(Nc2c(-c3ccsc3)nc3ccc(Cl)cn23)cc1	-7.2%
Cc1nc2scc(CC(=O)N3CCOCC3)n2c(=O)c1-c1cc(C)n(-c2ccc(F)cc2)n1	-7.8%
CC(=O)Nc1ccc(CNc2ncnc3ccc(-c4c(C)noc4C)cc23)cc1	0.7%
Cc1ccc(-c2cn3c4c(sc3n2)CCCC4)cc1	-9.7%
CCOc1ccccc1NC(=O)C1CCCN1S(=O)(=O)c1ccc2c(c1)C(C)(C)C(=O)N2C (stereo unspecified)	-17.0%

Main list (from the top)
Compound	nsP2pro primary
CCn1cc(C(=O)N2C[C@@H](COC)[C@H](C(=O)NC)C2)cn1	-0.7%
CC(C)c1ccc(Nc2c(-c3ccsc3)nc3ccc(Cl)cn23)cc1	-7.2%
Cc1nc2scc(CC(=O)N3CCOCC3)n2c(=O)c1-c1cc(C)n(-c2ccc(F)cc2)n1	-7.8%
CC(=O)Nc1ccc(CNc2ncnc3ccc(-c4c(C)noc4C)cc23)cc1	0.7%
Cc1ccc(-c2cn3c4c(sc3n2)CCCC4)cc1	-9.7%
CCOc1ccccc1NC(=O)C1CCCN1S(=O)(=O)c1ccc2c(c1)C(C)(C)C(=O)N2C (stereo unspecified)	-17.0%
Cc1ccc(NC(=O)c2cnn3c(C(F)F)cc(-c4ccccc4)nc23)c(C)c1	-17.1%
CCOc1ccc(C(=O)NCC(c2ccc3c(c2)OCO3)N2CCOCC2)cc1 (stereo unspecified)	-26.5%
O=S(=O)(c1ccccc1)N1CCCC(CN2CCCC2)CC1 (stereo unspecified)	-2.0%
Cc1ccc(-c2nn(-c3cccc(F)c3)cc2CN(C)CCO)o1	-8.0%
CC(=O)Nc1sc2c(c1-c1nc3ccccc3s1)CNCC2	i
CCOC(=O)CCCC(=O)Nc1ncnc2c1C(c1ccccc1)c1c(ccc3ccccc13)O2 (stereo unspecified)	-9.2%
COc1cccc(-c2nnc3n2N=C(c2c(OC)cccc2OC)CS3)c1	2.0%
Cc1ccc(C(=O)c2cn(Cc3ccccc3C)c3nc(C)ccc3c2=O)cc1	-19.1%
CC(C)NC(=O)N1CCC(Oc2ccccc2)C1 (stereo unspecified)	-4.1%
CNc1ncc(-c2cccc3ccccc23)o1	-8.5%
COc1ccc(F)cc1S(=O)(=O)NCCc1sc2nc(-c3ccc(F)cc3)nn2c1C	0.7%
CNC(C)Cc1ccccc1OC (stereo unspecified)	7.0%
Cc1ccc(NS(=O)(=O)c2cc3c(cc2Cl)CCC(=O)N3)cc1Cl	-8.9%
O=C(Nc1ccccc1C(=O)OCc1cc(=O)n2ccsc2n1)c1cccc(F)c1	-20.3%
COc1cccc(CNC(=O)c2ccc3nc(N4CCCCC4)sc3c2)c1OC	-0.2%
COc1cc(C)c(C(=O)NC2C(C)OC(OC3CCC(C)C4C3C=C(C)C3/C(C)=C\CC/C(C)=C/C5(C)C=C(C(=O)O)C(C)CC56OC(=O)/C(=C(\O)C34C)C6=O)C(O)C2(C)O)c(O)c1 (stereo unspecified)	?
O=C(c1cncc(Br)c1)N1CCC(N2CCCC2)CC1	-16.4%
CCOc1ccc(NC(=O)CN2C(C(=O)OC)=C(c3ccccc3)c3cc(Cl)ccc3S2(=O)=O)cc1	-10.9%
COc1ccc(-c2ccnc(N[C@H]3CO[C@H]4[C@@H]3OC[C@@H]4NC(=O)Nc3cccc(C#N)c3)n2)cc1	-18.3%
CCOC(=O)c1ncn2c1CN(C)C(=O)c1c(I)cccc1-2	-6.1%
CC1=CC(=O)CC(C)(C)C1CCC(C)O[C@@H]1O[C@H](CO)[C@@H](O)[C@H](O)[C@H]1O (stereo partly specified)	17.4%
O=C(NCCn1ccnc1-c1cc2n(n1)CCCNC2)c1ccncc1	i
COc1ccc2nc(-c3cccc(OCc4ccccc4)c3)sc2c1	-4.6%
CCC(Sc1nc2nccnc2c(=O)n1Cc1ccc(F)cc1)C(=O)NC1CCCCC1 (stereo unspecified)	-19.1%
O=S(=O)(NCCCCNS(=O)(=O)c1c(F)cccc1F)c1ccc2c(c1)OCCO2	-0.5%
Cc1cc(C)cc(NC(=O)CSc2nc(=O)n(CCN3CCOCC3)c3c2CCC3)c1	-16.5%
O=C(/C=C/c1ccccc1Cl)N1CCC(c2nc3ccccc3o2)CC1	?
OC[C@H]1O[C@@H](n2cnc3c(=S)nc[nH]c32)[C@H](O)[C@@H]1O	-8.3%
O=C(c1cc(F)ccc1Cl)N1CCCC1c1nncn1Cc1ccncc1 (stereo unspecified)	-7.9%
Nc1ccccc1	0.5%
CCOc1ccc(OCC)c(NC(=O)C2CCCN(S(=O)(=O)c3ccc(C)cc3)C2)c1 (stereo unspecified)	-14.5%
Cc1cnc(C2CCOCC2)n1C1CCCN(C(=O)c2cn(C)cn2)C1 (stereo unspecified)	-9.1%
Cc1c(CCC(=O)N2CCCCC2)c(=O)oc2cc3occ(C(C)(C)C)c3cc12	-3.9%
CC(=O)N1CCC(C(=O)N(CCCN2CCC(Cc3ccc(C(N)=O)cc3)CC2)c2ccc(C)c(Cl)c2)CC1	-20.5%
CC(C)(C)c1cc(O)c(CN)c(C(C)(C)C)c1	-6.4%
CCOC(=O)N1CCC(=C2c3ccc(Cl)cc3CCc3cccnc32)CC1	-0.8%
NC(=O)c1nc(F)c[nH]c1=O	-6.4%
Cc1cc(C)nc(NS(=O)(=O)c2ccc(NC(=O)c3cc(=O)c4ccc(C)c(C)c4o3)cc2)n1	-9.5%
CCN(CC)CCCC(C)n1c(-c2ccccc2)nc2c(NCc3ccccc3)nc(C)nc21 (stereo unspecified)	i

Next part.
Compound	nsP2pro primary
Cc1c(Cl)cccc1NC(=O)c1ccc2nc(C(C)C)oc2c1	-15.4%
Cc1nnc([C@@H]2CC(F)(F)CN2C(=O)c2nccc3ccccc23)o1	-4.8%
COc1cc2c(Nc3cc(F)c(Cl)c(Cl)c3)ncnc2cc1OCC1CCCN(C)CCC1	262.1%[activator]
Nc1ccc(S(=O)(=O)Nc2cccc3cccnc23)cc1	i
Cc1ccsc1C(=O)N1CCC(c2nc(CCOCC3CC3)no2)C1 (stereo unspecified)	i
COc1ccc(-n2nc(C(=O)N3CCN(c4cccc(C(F)(F)F)c4)CC3)c3c4ccccc4n(C)c3c2=O)cc1Cl	-7.2%
Fc1cc(Nc2nc(-c3ccncc3)nc3ccccc23)ccc1-c1cccc(OC(F)(F)F)c1	3.2%
COc1c[nH]c(CN2CCN(C)C3(CCC(=O)N(C)CC3)C2)cc1=O (stereo unspecified)	i
CCOC(=O)c1c(NC(=O)c2cc(C(C)C)on2)sc(C(C)=O)c1C	2.7%
Cc1ccc(C)n1-c1nnc(N2CCCC(C(=O)Nc3ccc(C(C)C)cc3)C2)s1 (stereo unspecified)	?
CCOC(=O)c1sc2cccc(F)c2c1S(=O)(=O)NCc1ccccc1Cl	-18.1%
Fc1ccccc1N1CCN(c2nc(-c3cccs3)nc3ccccc23)CC1	0.0%
CCC#CCN1CCc2ccccc2N(CC(O)COCc2ccco2)CCC1=O (stereo unspecified)	-24.3%[10 µM]
COc1ccc(-c2ccc3c(N)c(C(=O)NCc4ccc(C)cc4)sc3n2)cc1	-10.0%
COc1ccccc1CNc1ccc(S(=O)(=O)Nc2nccs2)cc1	2.8%
CCN(CC)c1ccc(NS(=O)(=O)c2cc(-c3onc(C)c3C)ccc2OC)c(C)c1	-5.1%
CC1=CC(=C(c2ccc(N)cc2)c2ccc(N)cc2)C=CC1=N	7.8%
CSc1nc(C)cc(Nc2c(C)cc(C)cc2C)n1	-9.4%
Cc1cc(C)c(S(=O)(=O)Nc2cccc(-c3cn4ccccc4n3)c2)c(C)c1	-2.9%
CCOc1ccc(-c2nonc2NC(=O)c2oc3cc(C)ccc3c2C)cc1	-28.7%
C[C@]12C=CC(=O)C=C1CC[C@@H]1[C@@H]2[C@@H](O)C[C@@]2(C)[C@H]1CC[C@]2(O)C(=O)COP(=O)(O)O	6.8%[5.1 µM]
CC(=O)OCc1cc(=O)n2nc(C3CCCCC3)sc2n1	-23.8%
CC(C)c1ccccc1-c1ncc(F)c(NCC2CCN(c3cnccn3)C2)n1 (stereo unspecified)	2.1%
N#Cc1cc(NC(=O)Nc2nnc(-c3ccncc3)s2)ccc1F	-18.3%
COc1ccccc1-c1ccc(C(=O)N2CCC(NC(=O)Cc3ccc(F)cc3)CC2)cc1	1.9%
Cc1ccc2c(C(=O)NCc3ccc(Cl)cc3)cnn2c1	2.2%[39.2 µM]
Cc1ccc(C2C=C(c3ccc(Cl)cc3)Nc3nc(NC(=O)c4ccco4)nn32)cc1 (stereo unspecified)	?
CC(C)(C)c1ccc(-n2cnc3cc(C(=O)N4CCCCC4)ccc32)cc1	-9.1%
O=C(O)c1ccc(OC2OC(CO)C(O)C(O)C2O)cc1 (stereo unspecified)	?
COCc1nnc2n1CCC(NC(=O)C1(c3ccc(OC)cc3)CC1)CC2 (stereo unspecified)	4.3%
CCOCc1nc2c(N)nc3ccccc3c2n1CC(C)(C)O	?
Cc1ccc(NC(=O)c2c(C)nc3sc(C(=O)Nc4ccc(F)cc4)c(N)c3c2-c2ccc(C)o2)c(C)c1	11.7%
O=C(Nc1nnc2n1CCS2)c1ccccc1C(F)(F)F	-10.8%
Cc1cc(NS(=O)(=O)C2CCN(C(=O)Cc3ccc(Cl)c(Cl)c3)CC2)no1	-2.0%
CC(=O)c1ccc(NC(=O)CN(C)S(=O)(=O)c2cc3c(cc2Cl)NC(=O)CO3)cc1	1.4%
O=C(Cn1nnc(-c2ccc(C(F)(F)F)cc2)n1)NCCc1ccccc1	-1.4%
Cn1nnnc1Sc1ncnc2scc(-c3ccccc3Br)c12	4.8%
CC(C)CNC(=O)N1CCCCC1c1nc(CCOc2ccc(F)cc2)no1 (stereo unspecified)	i
CCC(C(=O)NCc1ccccc1Cl)n1c(=O)c2cccn2c2ccccc21 (stereo unspecified)	-19.5%
Cc1ccc2nc3sc(C(=O)NCCCN(C)C)cc3cc2c1	i
O=C(NCCc1ccc(Cl)cc1)c1ccc2nc(Cc3ccccc3)oc2c1	-21.4%
Cc1nc2nc(NCc3ccccc3Cl)[nH]n2c(=O)c1Cc1ccccc1	-10.1%
Cc1nn(CC(=O)NCCCN2CCCCC2)c(=O)c2nc(-c3ccccc3)sc12	-2.5%
O=C(O)c1ccc(CSc2nnc(-c3cccc([S+](=O)([O-])N4CCCC4)c3)n2-c2ccccc2)cc1	i
Cc1noc2c(NCCN3CCOCC3)cc(-c3ccsc3)nc12	i
CCc1nn(CC(=O)NCCc2ccc(OC)c(OC)c2)c(=O)c2cc3occc3n12	-22.6%
COc1cc(OC)cc(-c2nnc3n2N=C(c2cc(OC)ccc2OC)CS3)c1	i
Cc1nnc(NC(=O)c2nc(SCc3ccccc3F)ncc2Cl)s1	-22.4%
COCCNC(=O)C1CCC(=O)N1C1CCNCC1 (stereo unspecified)	3.1%
c1nc(NCC2CCCCC2)c2cc(-c3ccc4c(c3)OCO4)ccc2n1	i
Cc1ccc(S(=O)(=O)Nc2ccccc2C(=O)Nc2ccc(-c3ccccc3)cc2)cc1	?
COc1ccc(CN2CCN(C(=O)[C@H]3CCC[C@@H](O)C3)CC2=O)cc1	-7.6%
Cc1ccc2nc3sc(C(=O)Nc4ccc(F)cc4)cc3cc2c1	2.8%
Cc1cccc(N2CCN(C(=O)c3noc4c3COc3ccc(C)cc3-4)CC2C)c1 (stereo unspecified)	-12.9%
COc1ccc(-c2ccc3ncc(Nc4ccncc4)n3n2)cn1	i
Cc1cc(C)nc(NC(=S)N2CCN(c3cccc([N+](=O)[O-])c3)CC2)c1	2.8%

Other entries follow:
Compound	nsP2pro primary
COCCOc1ccc2c(n1)CCN(C(=O)c1ccc(OC)c(OC)c1)C2	i
C#CCOc1ccc(-c2nnc3n2N=C(c2ccc(OC)c(OCC(C)=O)c2)CS3)cc1	-4.3%
CC1CCCCN1C(=O)CSc1nc(-c2ccccc2)no1 (stereo unspecified)	-10.7%
Oc1ccccc1-c1cc(-c2ccccc2F)[nH]n1	10.3%
Cc1ccc(S(=O)(=O)Nc2ccc(C(=O)Nc3nc(-c4ccccc4)cs3)c(Cl)c2)cc1	?
COc1ccc2c(=O)n(CC(=O)N(C)Cc3cc(C)no3)ccc2c1OC	-2.0%
CCOCCCNC(=O)c1ccc(-n2c(-c3ccccc3)cc3c2CCCCC3)cc1	-3.6%
CCc1nc(C)c(C(=O)N2CC[C@@](O)(COC)C(C)(C)C2)s1	-0.4%
O=S(=O)(NC[C@H]1O[C@@H](CO)[C@@H](O)[C@H]1N1CCN(c2ccc(F)cc2)CC1)c1ccc(F)cc1	-19.4%
CCOCCc1nn2c(=O)cc(COC(=O)c3ccccc3NC(=O)C3CCCCC3)nc2s1	-13.0%
Fc1ccc2nc(CO[C@H]3CN(C4CCC4)C[C@H]3F)[nH]c2c1	i
COC(=O)C1(C)CCC(=O)C2(C)c3c(O)cc(C(C)C)cc3C(O)C(OC(C)=O)C12 (stereo unspecified)	1.4%[10 µM]
O=C(c1coc(COc2ccc(F)cc2)n1)N1CCC(c2ccc(F)cc2)C1 (stereo unspecified)	-3.2%
COC(=O)N[C@H](C(=O)N1CC2(CC2)C[C@H]1c1ncc(-c2ccc3c(c2)C(F)(F)c2cc(-c4ccc5nc([C@@H]6[C@H]7CC[C@H](C7)N6C(=O)[C@@H](NC(=O)OC)C(C)C)[nH]c5c4)ccc2-3)[nH]1)C(C)C	4.0%
COc1ccc(NC(=O)c2cnn3c(C)cc(C)nc23)cc1	0.4%

Looked up by compound from above, 3 records:
Compound	nsP2pro primary
Fc1ccc2nc(CO[C@H]3CN(C4CCC4)C[C@H]3F)[nH]c2c1	i
CCOCCc1nn2c(=O)cc(COC(=O)c3ccccc3NC(=O)C3CCCCC3)nc2s1	-13.0%
COC(=O)C1(C)CCC(=O)C2(C)c3c(O)cc(C(C)C)cc3C(O)C(OC(C)=O)C12 (stereo unspecified)	1.4%[10 µM]
